# Compound activity from PubChem BioAssay.
# VACV Venus inh = vaccinia inhibition (Venus reporter). Vaccinia virus Venus reporter expression, fluorescence. hit rate 0.46% among 330,000. AID 720580. Potency, µM (top dose mostly 36.5 µM), without a hit: at the top dose activity change, negative = inhibition, usual class: inhibitors; active means well fitted inhibition curve with a large enough effect; inconclusive means small, poorly fitted or top-dose-only effect; inactive means no such curve, though single readings can be large or run the other way; tested in A549 cells; note: nearly all actives have a fitted effect of over 30% in size; inactives centre near -10
# Vaccinia mCherry = inhibitors of vaccinia virus infection (mCherry reporter signal). Vaccinia virus mCherry reporter infection, fluorescence; about a quarter of the inactives have no number. Potency, µM (titrated, usually from 36.5 µM), for the others: top-dose activity change, negative = inhibition, most hits filed as inhibitors. hit rate 0.63% among 310,000; active = well fitted inhibition curve with a large enough effect; inconclusive = small, poorly fitted or top-dose-only effect; inactive = no such curve, though single readings can be large or run the other way; tested in A549 cells; note: nearly all actives have a fitted effect of over 35% in size; inactives centre near -10
# * marks the source's active call; other numbers are inactive results; i = inactive; ? = inconclusive; . = no result given; & = joins results of further samples; [ ] = remark or other dose. % is set by controls: 0 for no effect and ±100 for the full control effect; potency is the fitted concentration of half-maximal effect.
SMILES,VACV Venus inh,Vaccinia mCherry
Cc1nc2c(C(=O)N3CCN(c4ccccn4)CC3)cnn2c(C)c1Cc1cccc(Cl)c1,-11%,-15%
COc1ccc(S(=O)(=O)NCc2nc3nc(C)cc(C)n3n2)cc1,1%&-4%,6%&-13%
O=C(COC(=O)c1cc(Cl)ccc1O)c1ccc2c(c1)OCO2,-7%,-1%
COCC(=O)N1CCCC(CNS(=O)(=O)c2ccc(OC)cc2)C1 (stereo not given),2%,i
CC(C)NC(=O)C1(S(=O)(=O)c2ccccc2)CC=CC1,1%,i
Cc1c(Cl)cccc1NC(=O)C1=COCCO1,-1%,-18%
CC(C)n1cc(CN2CCCC(C(=O)Nc3ccccc3Oc3cccnc3)C2)cn1 (stereo not given),-13%,-28%
CC(=O)NC1=NN(C(C)=O)C(C)(CS(=O)(=O)c2ccc(C)c(C)c2)S1 (stereo not given),-8%,-18%
Cc1cccc(NC(=O)CSc2nc3ccc(NC(=O)c4cccs4)cc3s2)c1,-1%,-10%
CC(C)C(=O)Nc1nc2c(c(=O)[nH]1)CCCC2,-3%,-5%
NC(=O)c1ccsc1NC(=O)COC(=O)C1CC2CCCC(C1)C2=O (stereo not given),-9%,9%
COc1ccc(CCNCc2ccc(F)cc2)cc1OC,-10%,i
COc1ccc(C(C(=O)NCc2ccc(F)cc2)N(C(=O)c2csnn2)C2CC2)cc1 (stereo not given),-12%,-6%
Cc1ccc(-c2csc(-c3cc4c([nH]c3=O)CC(c3ccccc3)CC4=O)n2)cc1 (stereo not given),143%[activator],-25%
COc1ccc(CCN(C)C(=O)/C=C/c2c(Cl)nc3ccccn23)cc1OC,0%,-4%
COc1ccc(Cl)cc1NC(=O)CSc1cc(C)[nH]c(=O)n1,-8%,-17%
CN(C)C(=O)c1cccc(-c2cnc3c(NC=O)cc(-c4cccc(C(F)(F)F)c4)cn23)c1,?,?
COC(=O)CSc1ccc2nnc(-c3ccc(F)cc3)n2n1,-12%,7%
CCC(CCCO)CCC[C@H](C)CCC1OCCO1 (stereo not given in full),-29%,?
C=CCn1c(O)c(C(CC)=Nc2ccc(N(C)C)cc2)c(=O)[nH]c1=O,-10%,-5%
Cc1cccn2c(=O)nc(SCC(=O)NCc3ccccc3Cl)nc12,-8%,-5%
CCOC(=O)c1ccc(-c2n[nH]c(=O)c3ccccc23)cc1,2%,i
O=C(COC(=O)c1cccc2ccccc12)NCCCc1ccccc1,5%&-2%,-10%&-15%
COc1ccc(C(F)(F)F)cc1NC(=O)c1nc2nc(C)cc(C(F)F)n2n1,-6%,.
C=CC[C@@H](CC(=O)OC(C)(C)C)C(=O)OC[C@H]1CCCN1C(=O)[C@@H](CC=C)CC(=O)NCCO,-14%,i
# (listing goes on)
SMILES,VACV Venus inh,Vaccinia mCherry
COc1ccc(/C=N/NC(=O)C2COc3ccccc3O2)cc1OC (stereo not given),-9%,i
COc1ccc(CNC(=O)c2cc(-c3cccc(Cl)c3)on2)cc1,2%,-12%
COc1cc(CN2CCN(Cc3ccc(C)cc3)C(CCO)C2)ccc1O (stereo not given),-1%,-8%
CC(C)(C)OC(=O)N/N=C\c1ccc([N+](=O)[O-])s1,?,-12%
Cc1ccc(C(=O)O/N=C/c2c(C(F)(F)F)nn(C)c2Sc2ccc(Cl)cc2)cc1,-7%,.
Cc1nc2ccccn2c1C(=O)c1ccccc1,-19%,.
CCCCCc1nnc(NC(=O)C(=O)OCC)s1,-8%,-13%
COc1cc(OC)c([N+](=O)[O-])cc1/C=N/NC(=O)c1ccncc1,-4%,i
Cc1ccccc1Cn1c2ccccc2c2cnn(CC(=O)NCC(C)c3ccccc3)c(=O)c21 (stereo not given),-17%,-17%
Cc1cc2ccccc2n1CCNC(=O)c1cccc(Cl)c1,-9%,-10%
C/C(=C\c1ccccc1)CN1CCN(Cc2ccc(C)o2)C(CCO)C1 (stereo not given),-7%,-12%
NC(=O)c1ncn([C@@H]2O[C@H](CNC(=O)[C@@H](N)Cc3cccnc3)[C@@H](O)[C@H]2O)n1,2%,-10%
Cc1cc(=O)oc(C)c1C(=O)N1CCCCC1,6%,-3%
Cc1cc(C)c(C)c(/C=C(/C#N)C(N)=S)c1C,-29%,-29%
O=C(Nc1ccc(C(=O)N2CCC(N3CCOCC3)CC2)cc1)c1ccc(Br)o1,-6%,-6%
CC(=O)Nc1ccc(NC(=O)[C@H](C)NC(=O)c2ccco2)cc1,-6%,8%
O=C(CNS(=O)(=O)c1ccccc1)Nc1ccccc1Br,-1%,-3%
N#CCCn1c(SCC(=O)NCC2CCCO2)nc2ccccc21 (stereo not given),-4%,-10%
CCOCCCNC(=O)C1CCC(CNS(=O)(=O)c2ccc(NC(C)=O)cc2)CC1 (stereo not given),-13%,-9%
O=C1CN(S(=O)(=O)c2ccccc2C(F)(F)F)CCN1,-3%,2%
Cc1ccc(C)c(N2CCN(C(=O)c3c4c(nc5ccccc35)C(=O)N(C3CCCCC3)C4)CC2)c1,-10%,-13%
COc1ccc(N)c2c1OCCC2=O,7%,-15%
CC(Oc1ccccc1)C(=O)Nc1c(C(=O)Nc2cccc(F)c2)oc2ccccc12 (stereo not given),-18%,-15%
CCOC(=O)c1ccc(NC(=O)CSc2nnc(CNC(=O)c3c(F)cccc3Cl)o2)cc1,-2%,-8%
CC(C)NC(=O)C1(C)CN(S(C)(=O)=O)CC(=O)N1Cc1cccc(C(F)(F)F)c1 (stereo not given),-15%,-13%

# Looked up by structure from the list above, 3 records:
SMILES,VACV Venus inh,Vaccinia mCherry
O=C1CN(S(=O)(=O)c2ccccc2C(F)(F)F)CCN1,-3%,2%
Cc1cc2ccccc2n1CCNC(=O)c1cccc(Cl)c1,-9%,-10%
N#CCCn1c(SCC(=O)NCC2CCCO2)nc2ccccc21 (stereo not given),-4%,-10%

# Back to the main list, repeating the 2 entries before the break.
SMILES,VACV Venus inh,Vaccinia mCherry
CCOC(=O)c1ccc(NC(=O)CSc2nnc(CNC(=O)c3c(F)cccc3Cl)o2)cc1,-2%,-8%
CC(C)NC(=O)C1(C)CN(S(C)(=O)=O)CC(=O)N1Cc1cccc(C(F)(F)F)c1 (stereo not given),-15%,-13%
CCOC(=O)c1cccc(N2CC3CNC(=O)C2(C(=O)OC)N3C)c1 (stereo not given),-8%,i
O=C(NN1CCOCC1)c1sc2cccc(F)c2c1Cl,-6%,i
O=S1(=O)CCO[C@H]2Cc3ccccc3[C@H]2N1Cc1ccc(F)cc1,-10%&-4%,i
COc1ccc2c(-c3ccccc3)cc(SCC(=O)NC3CCS(=O)(=O)C3)nc2c1 (stereo not given),-22%,i
CCc1ccc(C(=O)/C=C/Nc2ccc(S(=O)(=O)Nc3cnc4ccccc4n3)cc2)cc1,0%,i
CC1(C(=O)NCc2cccc3ccccc23)CCN1CCc1ccccc1 (stereo not given),-5%,-29%
O=C(c1cccc(F)c1)N1CCC(N2CCOCC2)CC1,-16%,.
CCOC(=O)C1=C(C)NC(C)=C(C(=O)OC)[C@H]1c1cccc([N+](=O)[O-])c1,-20%,25%
Fc1ccc(C(c2nnnn2CCc2ccccc2)N2CCCc3ccccc32)cc1 (stereo not given),-22%,?
CCN(CC)C(=O)CSc1cn(CC(=O)N2CCCCCC2)c2ccccc12,-11%,-9%
COc1ccccc1N1C(=O)CC(Nc2ccc(N3CCOCC3)cc2)C1=O (stereo not given),-1%,-8%
Cc1ccc(S(=O)(=O)N2CCC[C@H]2C(=O)OCC(=O)N2CCc3ccccc32)cc1,-20%,-9%
Clc1ccc(-c2noc(CN3CCOCC3)n2)cc1,-19%,-10%
COc1cc2c(cc1[N+](=O)[O-])-c1ccc([N+](=O)[O-])cc1C2=NO,-19%,-3%
CNS(=O)(=O)c1cc(NC(=O)c2cccc3cccnc23)ccc1C,-10%,?
Cc1ccc(Sc2ncccc2/C=N/O)cc1,-9%,i
CCOCCCNC(=O)C1CCN(C(=O)N(C)C)CC1,-5%,i
O=C(CCC(=O)N1CCC2(CC1)OCCO2)Nc1nnc(C2CCCCC2)s1,-8%,-9%
COc1ccc(C)cc1NC(=O)C(OC(=O)c1cnc(C)cn1)c1ccccc1 (stereo not given),-17%,-1%
Cc1nc2nc(COc3ccccc3)[nH]n2c(=O)c1C,-13%,-26%
COc1ccccc1-n1c(SCC(=O)N2CCOCC2)nc2ccccc2c1=O,-16%,i
COc1cc(C(=O)NC(c2ccccc2)c2ccccc2)cc(Cl)c1OC,-5%,-14%
CCC(Cn1nnc2ccccc2c1=O)NC(=O)Nc1ccc(C)cc1C (stereo not given),-5%,-6%
CC(C)NC(=O)/C(C#N)=C/c1ccc2c(c1)OCCO2,-11%,-13%
CCCn1c(C(C)Nc2nc(-c3cccc(Br)c3)cs2)nc2ccccc21 (stereo not given),-25%,?
# Next section:
SMILES,VACV Venus inh,Vaccinia mCherry
Cc1ccnc(NC(=O)CNC(=O)c2cccs2)c1,-2%,i
CCN1C(=O)/C(=C/c2ccc3c(c2)CCN3CCCCl)C(=O)NC1=S,15%,12%
C[C@]12CCC3C(CC[C@H]4CC(O)CC[C@]34C)C1CC/C2=N/NC(=O)c1ccncc1 (stereo not given in full),-13%,-14%
Cc1ccc(NC(=O)NCc2cccnc2)cc1,-4%,-7%
C#CCNC(=O)C[C@@H]1C[C@@]2(C(=O)OC)CC(C)(C)CC=C2N(Cc2cccc3ccccc23)C1=O,-25%,-26%
COc1ccc(-c2nc3ccc(Cl)cn3c2Nc2ccc(C)cc2)cc1,-8%,-14%
Cc1cc(OCC(=O)NCCc2ccc(Cl)cc2)c2c(C)cc(=O)oc2c1,-11%,-7%
Cc1c(C(=O)NCc2ccc3c(c2)OCCO3)sc(=O)n1Cc1ccc2c(c1)OCO2,6%,26%
COc1ccc(C(=O)N2C=Cc3ccccc3C2C(N)=O)cc1 (stereo not given),-11%,-18%
CNc1ccc(/C=C2\C=Cc3ccccc32)cc1OC,-18%,-30%
CCC(=O)N1c2ccc(S(=O)(=O)NCc3cccc(OC)c3)cc2CC1C (stereo not given),5%,-6%
Cc1[nH]n(-c2cccc3ccccc23)c(=O)c1C=Nc1ccc2[nH]c(=O)[nH]c2c1,7%,.
O=C(NCCCN1CCCC1=O)c1cc(S(=O)(=O)N2CCOCC2)c(Cl)cc1Cl,-3%,i
CC(=O)Nc1ccc2c(c1)nc(CCN1CCN(c3ccccn3)CC1)n2C,-2%,-7%
CC(C)CN(C(=O)c1cccc([N+](=O)[O-])c1)c1c(N)n(CC(C)C)c(=O)[nH]c1=O,-3%,5%
COc1ccc2nc(NC(=O)Nc3ccccc3OC)sc2c1,-21%,?
CC(NCCCSc1ccccc1)C(O)c1ccc(O)cc1 (stereo not given),-5%,-4%
COc1ccc(C(=O)Cn2cnc3ccccc3c2=O)cc1,-5%,-4%
CN1CCN(C(=S)C(=O)Nc2ccc(Br)cc2)CC1,-5%,-1%
CCCc1nn(C)c(C(=O)Nc2ccc(C(C)(C)C)cc2)c1Cl,-20%,-20%
CCCCCCN1CCN(C2CN(Cc3ccc([N+](=O)[O-])cc3)S(=O)(=O)C2)CC1 (stereo not given),-12%,?
Cc1cc(C)c2oc(C(=O)N(Cc3ccc(F)cc3)C3CCS(=O)(=O)C3)cc(=O)c2c1 (stereo not given),-15%,-1%
Cc1c(C(N)=O)sc2ncn(CC(=O)OC(C)C)c(=O)c12,-5%,-10%
NCCc1nnc(SCc2ccc(Cl)cc2)o1,-10%,-10%
Cc1noc(C)c1-c1ccc(C(=O)Nc2cccc(C(F)(F)F)c2)c2occc12,-9%,-5%
# New compounds follow
SMILES,VACV Venus inh,Vaccinia mCherry
CCCCOC(=O)Nc1nc2ccc(OC)cc2s1,-15%,-3%
OC(c1cc(Cl)cc(Cl)c1)c1ncc(-c2ccccc2C(F)(F)F)[nH]1 (stereo not given),-19%,-19%
COc1ccc(N(CC(=O)NCc2ccc(C)cc2)S(=O)(=O)c2c(C)[nH]c(=O)[nH]c2=O)cc1,4%,-4%
COc1ccccc1/C=C/C=N/N1CCN(c2ccccn2)CC1,-1%,.
CCc1ccc(OCC(=O)Nc2cc3oc4ccccc4c3cc2OC)cc1,?,?
Cc1sc(N/N=C/C=C/c2ccccc2)nc1-c1ccccc1,?,3.5µM*
COP(=O)(c1ccc(N(C)C)cc1)C(O)c1ccccc1 (stereo not given),-14%,-4%
N#CCSc1nc(N)c(C#N)c(C2CCCCC2)c1C#N,?,?
CC(C)NCCCCOc1cccc(Br)c1,0%,-20%
Cc1ccc(F)cc1NC(=O)CSc1nc(Nc2ccccc2)nc(N2CCOCC2)n1,-13%,i
CCc1cc2c3c(c(=O)oc2cc1OC)CCCC3,-5%,i
Cc1ccc(C2=CC(c3ccc(C)cc3)n3ncnc3N2)cc1 (stereo not given),-13%,-1%
CCCCCCCCN1C(=O)[C@H](CC(=O)N2CCN(C(=O)OCC)CC2)C[C@@]2(C(=O)OC)CC(C)(C)CC=C12,?,i
C/C(=N\NC(=O)c1ccc(O)cc1)c1ccc(N2CCOCC2)cc1,-4%,1%
CC(C)(C)c1ccc(-c2n[nH]c(=S)n2CCCN2CCOCC2)cc1,-12%,-8%

# Seven entries from above, reformatted:
compound	VACV Venus inh	Vaccinia mCherry
COP(=O)(c1ccc(N(C)C)cc1)C(O)c1ccccc1 (stereo not given)	-14%	-4%
N#CCSc1nc(N)c(C#N)c(C2CCCCC2)c1C#N	?	?
CC(C)NCCCCOc1cccc(Br)c1	0%	-20%
Cc1ccc(F)cc1NC(=O)CSc1nc(Nc2ccccc2)nc(N2CCOCC2)n1	-13%	i
CCc1cc2c3c(c(=O)oc2cc1OC)CCCC3	-5%	i
Cc1ccc(C2=CC(c3ccc(C)cc3)n3ncnc3N2)cc1 (stereo not given)	-13%	-1%
CCCCCCCCN1C(=O)[C@H](CC(=O)N2CCN(C(=O)OCC)CC2)C[C@@]2(C(=O)OC)CC(C)(C)CC=C12	?	i
